VDR inh = inhibitors of human vitamin D receptor; P11473; VDR-SRC2-3 peptide fluorescence polarization, 2 h; Potency, µM, without a hit: max response, negative = inhibition, hits mostly inhibitors; hit rate 0.93% among 400,000; AID 504847; active = well fitted inhibition curve with a large enough effect; inconclusive = small, poorly fitted or top-dose-only effect, or another doubt; inactive = no such curve, though single readings can be large or run the other way; note: series mostly up to about 120 µM
Target sequence (P11473 whole entry, looked up): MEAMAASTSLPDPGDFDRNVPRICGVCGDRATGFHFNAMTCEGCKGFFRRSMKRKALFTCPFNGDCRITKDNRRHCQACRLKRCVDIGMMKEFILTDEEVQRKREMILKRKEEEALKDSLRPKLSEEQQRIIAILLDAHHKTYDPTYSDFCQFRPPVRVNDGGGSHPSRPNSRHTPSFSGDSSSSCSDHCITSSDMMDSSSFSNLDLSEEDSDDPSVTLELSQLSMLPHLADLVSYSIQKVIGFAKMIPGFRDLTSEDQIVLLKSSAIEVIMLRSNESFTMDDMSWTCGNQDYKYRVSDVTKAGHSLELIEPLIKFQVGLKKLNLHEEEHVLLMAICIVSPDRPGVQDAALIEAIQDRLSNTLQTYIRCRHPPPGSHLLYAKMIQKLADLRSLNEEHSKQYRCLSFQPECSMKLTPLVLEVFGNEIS
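Inhibition of the VDR/SRC2-3 peptide interaction is quantified by fluorescence polarization. Compounds (23 nl, pintool) incubate with the reagents for 2 hours at ambient room temperature.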
* hit, by the source's call; ? = inconclusive; & = joins results of further samples; [ ] = remark or other dose. % is set by controls: 0 for no effect and ±100 for the full control effect; potency is the fitted concentration of half-maximal effect. An excerpt; rates above refer to the full screens.

SMILES | VDR inh
C/C(=N\S(=O)(=O)c1ccc(C)cc1)NC(=S)Nc1ccc(C)cc1 | -12%
COc1ccc(N2CC(NC(=O)c3ccc4c(c3)OCO4)CC2=O)cc1 (stereo not given) | 4%
CN(CC(=O)N1CCN(c2ccccc2)CC1)C1CCCc2ccccc21 (stereo not given) | -26%
CC1CN(CCc2ccccc2)c2nc3c(c(=O)n(CC(N)=O)c(=O)n3C)n2C1 (stereo not given) | -7%
Cc1ccc(OCC(=O)NNC(=O)c2ccc(-n3cncn3)c([N+](=O)[O-])c2)cc1 | 14%
Cc1cc(C)c(CSc2nnc(C)n3c2cc2occc23)c(C)c1 | -7%
CCNC(=O)C1CC(=O)N(CCCc2ccccc2)C(=Nc2ccccc2)S1 (stereo not given) | -3%
N#C/C(=C\c1ccc(OCc2ccc(C(=O)O)cc2)cc1)C(=O)NCc1ccccc1 | ?
Cc1ccc(C)c(S(=O)(=O)N2CCN(C(=O)c3cccnc3)CC2)c1 | -14%
CCCCn1c(N)c(N(C(=O)CSc2nnnn2-c2ccccc2)C2CCCC2)c(=O)[nH]c1=O | 1%
CC(CCCC(C)(C)O)NC(=O)c1ccc2oc(CCc3ccccc3)nc2c1 (stereo not given) | -15%
COc1ccc(N2CCN(C(=O)c3nc(-c4ccc(Cl)cc4)n4c3CCCCC4)CC2)cc1 | 9%
Cc1cc2[nH]c(=O)c(=O)[nH]c2cc1S(=O)(=O)Nc1ccc(OC(F)(F)F)cc1 | 4%
Cn1c(CCN2CCCCC2)nc2cc(NS(=O)(=O)c3ccc(Cl)cc3)ccc21 | 1%
Cc1nn(-c2ccccc2)c(N2CCCCC2)c1/C=N/NC(=O)c1ccncc1 | ?
c1ccc(-n2cnc3cc(NCc4ccccn4)ccc32)cc1 | -10%
O=C(N/N=C/c1cccc([N+](=O)[O-])c1)c1c[nH]c2ccccc12 | 5%
CCOc1ccc(CC(=O)N/N=C/c2sccc2C)cc1 | -9%
Cc1ccc2oc(-c3ccc(C)c(NC(=O)c4ccc(C(C)(C)C)cc4)c3)nc2c1 | 4%
COc1ccc(C2CC(=O)OC3=C2C(=O)CC(C)(C)C3)c(OC)c1 (stereo not given) | 7%
COC(=O)CSc1nnc(CNS(=O)(=O)c2ccc(C)cc2)n1C | 19%
COCCNc1nc(-c2cc(-c3ccc(Cl)cc3)on2)cc(C(C)C)n1 | -5%
Cc1ccccc1NC(=O)C1CCCN(S(=O)(=O)c2c(C)noc2C)C1 (stereo not given) | -6%
COc1ccc(-c2nnc(SCC(=O)N3CCCCC3)o2)cc1OC | -4%
CC(=O)c1cccc(CN2CCC(CO)(Cc3ccccc3)CC2)c1 | 29%
NC(=O)COC(=O)c1ccccc1OCc1ccc(Cl)cc1 | -17%
CC(=O)Nc1ccc(-c2nc3cc(Cl)ccc3o2)cc1 | -21%
CCc1cc(C(=O)c2ccc(OC)cc2)c(NC(=O)CN2CCN(C)CC2)s1 | 14%
O=C(C1CC(=O)N(c2ccccc2F)C1)N1CCOCC1 (stereo not given) | 10%
COc1ccc(NC(=O)CN(c2cc(C)cc(C)c2)S(=O)(=O)c2c(C)noc2C)cc1Cl | -3%
CCOc1ccc(CN(C)CC(=O)NCc2ccccc2Cl)cc1 | 11%
COc1cccc(C(C(=O)NC(C)(C)C)N(C(=O)CCC(=O)Nc2cc(C)on2)c2ccc3c(c2)OCCO3)c1OC (stereo not given) | -14%
O=C(C1CC1)N1CCN(c2nc3ccc(F)cc3s2)CC1 | 15%
O=C(O)c1[nH]c2ccccc2c1-c1ccccc1 | 0%
CC(C)(C)OC(=O)NS(=O)(=O)NCc1ccco1 | -17%
O=C(CN1CCN(Cc2ccccc2F)C1=O)NCc1cccnc1 | -1%
CCCCN(C)C(=O)c1cc2c(s1)-c1ccccc1S(=O)(=O)C2 | -6%
CCOC(=O)N1CCc2c(sc3c2c(=O)n(Cc2ccccc2)c(=O)n3Cc2ccc(C)cc2)C1 | -13%&-3%
CCOC(=O)CCc1c(C)nc2cc(-c3ccc(F)cc3)[nH]n2c1=O | 20%
O=C1CCCN1CCCNc1ncnc2c1[nH]c1ccc(Cl)cc12 | 1%

Structures above containing an aryl thioether with sulfur outside any ring, in the order listed:
SMILES | VDR inh
Cc1cc(C)c(CSc2nnc(C)n3c2cc2occc23)c(C)c1 | -7%
CCCCn1c(N)c(N(C(=O)CSc2nnnn2-c2ccccc2)C2CCCC2)c(=O)[nH]c1=O | 1%
COC(=O)CSc1nnc(CNS(=O)(=O)c2ccc(C)cc2)n1C | 19%
COc1ccc(-c2nnc(SCC(=O)N3CCCCC3)o2)cc1OC | -4%

Compounds above that contain an NH in an aromatic ring, in the order listed:
SMILES | VDR inh
CCCCn1c(N)c(N(C(=O)CSc2nnnn2-c2ccccc2)C2CCCC2)c(=O)[nH]c1=O | 1%
Cc1cc2[nH]c(=O)c(=O)[nH]c2cc1S(=O)(=O)Nc1ccc(OC(F)(F)F)cc1 | 4%
O=C(N/N=C/c1cccc([N+](=O)[O-])c1)c1c[nH]c2ccccc12 | 5%
O=C(O)c1[nH]c2ccccc2c1-c1ccccc1 | 0%
CCOC(=O)CCc1c(C)nc2cc(-c3ccc(F)cc3)[nH]n2c1=O | 20%
O=C1CCCN1CCCNc1ncnc2c1[nH]c1ccc(Cl)cc12 | 1%

(cont.)
SMILES | VDR inh
CC(=O)n1c(Cl)c(NC(=O)CCl)c2ccccc21 | -1%
Cc1c(Cl)cccc1NC(=O)Cn1c(=O)cc(C)c2c(C)nn(-c3cccc(F)c3)c21 | 11%
COc1ccccc1CNC(=O)Cc1ccc(Br)cc1 | 4%
COc1ccc(-c2nc3n(n2)C(c2ccccc2F)C(C(=O)Nc2cccnc2)=C(C)N3)cc1OC (stereo not given) | -11%
O=C(CSc1nc2ccccc2c(=O)n1C1CC1)NCc1ccccc1 | -11%
CC(C)(C)NC(=O)NC(=O)CN1CCN(c2ccccc2O)CC1 | 3%
Nn1c(SCC(=O)Nc2c(Cl)cccc2Cl)nncc1=O | -23%
CC(C)c1ccc(NC(=O)CN2CCN(C(=O)C3CCCO3)CC2)cc1 (stereo not given) | 5%
Nc1cccc(Oc2cnccn2)c1 | -14%
COc1ccccc1CNC(=O)COC(=O)CSc1ccc(C)c(C)c1 | 12%
O=C(Cn1cnnn1)NCCc1ccc(Cl)cc1Cl | -13%
CCC(Cc1ccccc1)NC(=O)CCn1cccc1 (stereo not given) | 14%
Cc1ccc(OCC(=O)NC2CCS(=O)(=O)C2)cc1 (stereo not given) | 4%
Cc1cc(S(=O)(=O)/N=C(\N)c2ccc(C(N)=O)cc2)cc(C)c1F | -14%
COc1ccc(C2C(C(=O)NCc3ccccn3)CCC(=O)N2c2cc(OC)c(OC)c(OC)c2)cc1 (stereo not given) | 11%
c1ccc(CCNCC2COc3ccccc3O2)cc1 (stereo not given) | 5%
COc1ccccc1NS(=O)(=O)c1ccc(N2CCOCC2)c(N)c1 | -4%
CC(=O)c1cccc(NC(=O)CCc2c(C)nc3c(-c4ccc(F)cc4)c(C)nn3c2C)c1 | -8%
CO/N=C(\C(=O)N[C@@H]1C(=O)N2C(C(=O)O)=C(COC(C)=O)CS[C@@H]12)c1csc(N)n1 | ?
CC[C@H](C)[C@H](NC(=O)[C@H](Cc1ccc(O)cc1)NC(=O)[C@H](Cc1cnc[nH]1)NC(=O)[C@H](CCCNC(=N)N)NC(=O)[C@H](CC(C)C)NC(=O)[C@H](C)NC(=O)[C@H](CO)NC(=O)[C@H](Cc1ccc(O)cc1)NC(=O)[C@H](Cc1ccc(O)cc1)NC(=O)[C@H](CCCNC(=N)N)NC(=O)[C@H](C)NC(=O)[C@H](CCSC)NC(=O)[C@H](CC(=O)O)NC(=O)[C@H](CCC(=O)O)NC(=O)[C@H](C)NC(=O)[C@@H]1CCCN1C(=O)[C@H](C)NC(=O)[C@H](CC(=O)O)NC(=O)[C@H](CCC(=O)O)NC(=O)CNC(=O)[C@@H]1CCCN1C(=O)[C@H](CC(N)=O)NC(=O)[C@H](CC(=O)O)NC(=O)[C@@H]1CCCN1C(=O)[C@H](CCCCN)NC(=O)[C@H](CO)NC(=O)[C@@H]1CCCN1C(=O)[C@@H](N)Cc1ccc(O)cc1)C(=O)N[C@@H](CC(N)=O)C(=O)N[C@@H](CC(C)C)C(=O)N[C@@H](CC(C)C)C(=O)N[C@H](C(=O)N[C@@H](CCCNC(=N)N)C(=O)N1CCC[C@H]1C(=O)N[C@@H](CCCNC(=N)N)C(=O)N[C@@H](Cc1ccc(O)cc1)C(N)=O)[C@@H](C)O | 1%
CC(=O)N1CCC(C(=O)Nc2nc(-c3ccccc3)ns2)CC1 | 4%
COC(=O)N1[C@H](Cc2ccccc2)C=C[C@]1(C)C(=O)O | 4%
COc1cccc2sc(N(CCCN(C)C)C(=O)C(c3ccccc3)c3ccccc3)nc12 | -10%
CC1CCCC(C)N1CC(O)COc1ccc(Cl)cc1 (stereo not given) | -11%
NC(=O)NOCc1ncc(C(F)(F)F)cc1Cl | -1%
CN(Cc1ccccc1)c1ncnc2onc(-c3ccc(F)cc3)c12 | 5%
CS(=O)(=O)N(CC(=O)N1CCN(c2ccc(F)cc2)CC1)C1CCCCC1 | -1%
CCCNC(=O)CN1C(=O)CSc2ccc(S(=O)(=O)N3CCC(C)CC3)cc21 | -2%
CN(C)S(=O)(=O)c1cccc2nsnc12 | 32%[activator]
Cc1ccccc1-c1nnc(CS(=O)(=O)c2ccccc2)o1 | -2%
Cn1c(C(=O)NCCCN2CCc3ccccc3C2)cc2c(=O)n(C)c3ccccc3c21 | ?
CS(=O)(=O)N1N=C(c2ccco2)CC1c1ccc(Cl)cc1 (stereo not given) | -6%
Cn1c(CNC(=O)CSc2n[nH]c(-c3ccccc3Cl)n2)nc2ccccc21 | 7%
CCOC(=O)c1cc(-c2ccc(OC)cc2)n(CCC(=O)NC2CCCCC2)c1C | 3%
CC1CCN(Cc2cc(=O)oc3cc4c(cc23)CCCC4)CC1 | -13%
O=C(c1cccc(S(=O)(=O)N2CCCC2)c1)N1CCCC(C(F)(F)F)C1 (stereo not given) | 11%
COC(=O)c1ccc(Oc2ccc(C(C)(C)C)cc2)c([N+](=O)[O-])c1 | 23%
CC(C)C(=O)Nc1ccc2c(c1)C(=O)N(CCC(=O)O)C2=O | 31%[activator]
Cc1cccc(Oc2ccc(NC(=O)CCC(=O)OCC(=O)c3ccc(Br)cc3)cc2)c1C | -15%
NS(=O)(=O)c1ccc(NC(=S)NC(=O)c2cccc(Br)c2)cc1 | 12%

As entered above:
CC(=O)Nc1ccc(-c2nc3cc(Cl)ccc3o2)cc1 – VDR inh: -21%
Nc1cccc(Oc2cnccn2)c1 – VDR inh: -14%

(listing goes on)
SMILES | VDR inh
Cn1c(Cn2c(=O)sc3ccccc32)nnc1SCC(=O)N1CCCC1 | -12%
COc1cc(-c2noc(C)c2C(=O)NCCc2c[nH]c3ccccc23)cc(OC)c1OC | 2%
CCN(CC)S(=O)(=O)c1ccc(C(=O)OCC(=O)NCCN2C(=O)CSC2=O)cc1 | -7%
CCOC(=O)C1CCN(C(=O)c2ccco2)CC1 | 1%
COC(=O)c1ccc(CSc2nc3ccc(S(=O)(=O)N4CCOCC4)cc3[nH]2)cc1 | 3%
CCOc1ccc(NC(=O)CN(C)C(=O)c2n[nH]c(=O)c3ccccc23)cc1OCC | 5%
CCCOc1ccc(C(=O)CCC(=O)OC(C)C(=O)Nc2ccc(NC(C)=O)cc2)cc1 (stereo not given) | -12%
COc1ccc(NC(=O)CSc2nc(O)cc(=O)n2-c2ccc(OC)cc2)cc1 | 1%
Cc1nnc(SCc2nc3ccccc3s2)n1-c1ccccc1 | 18%
CCn1c(/N=C/c2ccccc2NS(=O)(=O)c2ccc(C)cc2)nc2ccccc21 | 10%
O=C1C=C(Nc2ccc(Cl)cc2)CC(c2ccc(Cl)cc2)C1 (stereo not given) | 3%
COc1cccc(C2C(C(=O)c3cccs3)=C(O)C(=O)N2c2cc(C)on2)c1 (stereo not given) | -3%
COc1ccc(CCNC(=O)CCc2ccsc2)cc1OC | -4%
CC1=NC(C(F)(F)F)(C(F)(F)F)C2=C(CC(C)(C)CC2=O)N1Cc1ccco1 | -20%
CCOc1ccc(-c2nnc(SCC(=O)Nc3ccc4c(c3)c3ccccc3n4CC)n2N)cc1 | -22%
O=C(NNC(=O)c1sccc1-n1cccc1)c1cccs1 | -17%
Cc1cc(C)cc(CC(CC(=O)Nc2ccc(Cl)cc2)C(=O)O)c1 (stereo not given) | 16%
COc1ccc(-c2cn3cccnc3n2)cc1NC(=O)c1ccc(Br)o1 | 9%
Cc1ccc(-c2c[n+](CC(=O)Nc3cc(=O)n(C)c(=O)n3C)c3n2CCC3)cc1 | -8%
CCn1c(N)c(C(=O)NCC2CCCO2)sc1=S (stereo not given) | 35µM*
Cc1cccc(NC(=O)CSc2nc3ccccc3nc2N2CCCCC2)c1 | -12%
Cc1ccc(C(=O)NCCSc2ccc(Cl)cc2)cc1[N+](=O)[O-] | -2%
CC(C)(C)c1ccc(OCCNC(=O)Cc2ccc(F)cc2)cc1 | 0%
COC(=O)CSC(=S)N1CCCC(C)C1 (stereo not given) | -9%
CCOC(=O)c1nn(-c2ccc3c(c2)OCCO3)cc1O | -6%
CCCCN(CCCC)CP(=O)(c1ccccc1)c1ccccc1 | 1%
COCCn1c(C)cc(C(=O)CSc2ccc3ccccc3n2)c1C | -18%
COc1ccc2cc(OCC(=O)NNC(=O)Nc3ccc(OC)c(OC)c3)ccc2c1 | 18%
COc1ccc(-c2ccnc3c(-c4ccc(F)cc4)c(C)nn23)cc1OC | 2%
Cc1cc(C)n(CCC(=O)N/N=C/c2ccc(Cl)c([N+](=O)[O-])c2)n1 | 4%
CCCN(CC(=O)Nc1ccccc1OC)C(=O)c1cc(S(=O)(=O)NCc2ccccc2)ccc1C | 21%
CCN(CC)CCCNC(=O)c1ccc2nc(CCc3ccccc3)oc2c1 | 12%
O=C(Nc1ccc(S(=O)(=O)N2CCCC2)cc1)C1CCN(S(=O)(=O)c2ccc(F)cc2)CC1 | -13%
COCCNc1nc(-c2ccc(N(C)C)cc2)nc2ccccc12 | 79µM*

Bioassay records deposited in PubChem by National Center for Advancing Translational Sciences (NCATS).
